Six1-Eya2 inh – inhibitors of human Six1/Eya2 interaction; AlphaScreen GST-Six1/His-Eya2 binding, biochemical; hits give low values; control for the full effect not named in the record; actives 0.56% (n = 360,000); activity change, % (test concentration not listed); Q15475+O00167; in the data active = activity change below about -65%; inconclusive = about -30% to -65%; inactive = above about -30%; also: % is scaled to controls: 0 for no effect and ±100 for the full control effect; compound concentration not given in the record
Target sequence (O00167 whole entry, looked up): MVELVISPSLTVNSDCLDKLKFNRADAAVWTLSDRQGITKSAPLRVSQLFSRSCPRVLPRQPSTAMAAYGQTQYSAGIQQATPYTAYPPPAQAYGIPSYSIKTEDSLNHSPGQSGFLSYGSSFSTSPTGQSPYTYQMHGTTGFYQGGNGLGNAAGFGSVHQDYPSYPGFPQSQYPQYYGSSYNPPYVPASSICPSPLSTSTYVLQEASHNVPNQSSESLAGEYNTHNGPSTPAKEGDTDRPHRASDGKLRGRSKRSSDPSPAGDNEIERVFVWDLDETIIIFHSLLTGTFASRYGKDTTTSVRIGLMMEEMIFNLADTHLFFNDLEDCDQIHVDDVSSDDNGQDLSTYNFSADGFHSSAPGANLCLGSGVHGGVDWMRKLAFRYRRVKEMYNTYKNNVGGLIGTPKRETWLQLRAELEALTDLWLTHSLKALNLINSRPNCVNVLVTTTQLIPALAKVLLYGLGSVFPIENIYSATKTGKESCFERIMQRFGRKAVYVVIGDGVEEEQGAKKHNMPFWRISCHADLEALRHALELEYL
Target sequence (Q15475 whole entry, looked up): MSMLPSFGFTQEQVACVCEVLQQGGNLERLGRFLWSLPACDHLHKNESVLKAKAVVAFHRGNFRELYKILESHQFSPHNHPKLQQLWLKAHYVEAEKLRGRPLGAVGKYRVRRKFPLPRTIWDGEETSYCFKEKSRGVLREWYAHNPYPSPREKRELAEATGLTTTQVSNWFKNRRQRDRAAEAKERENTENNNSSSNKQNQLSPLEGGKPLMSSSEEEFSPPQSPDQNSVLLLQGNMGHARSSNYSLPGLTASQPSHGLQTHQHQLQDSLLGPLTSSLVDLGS
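AlphaScreen with GST-Six1 and His-Eya2 (5X mix: 250 nM and 500 nM), glutathione donor and nickel acceptor beads; buffer 50 mM Tris pH 8.0, 300 mM NaCl, 1 mM TCEP; 1 h at 37 C in the dark.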
D2 agonist – human D2 receptor agonism in beta-arrestin assay. DiscoveRx PathHunter D2 beta-arrestin, luminescence, 90 min; 100% = 57 uM dopamine signal. actives 0.084% (n = 360,000). AID 624465. activation, % (no concentration beside the values). P14416; in the data active = activation above about 40%; inconclusive = about 15% to 40%; inactive = below about 15%; also: compound concentration not given in the record; the text of the record calls up to 30% inactive
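Agonist mode: compounds alone added to overnight-plated D2 PathHunter cells for 90 min at 37 C, with 57 uM final dopamine (EC100) defining full response. Beta-arrestin recruitment detected by chemiluminescent reagent, read after 1 h at ambient temperature.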
CtBP-E1A inh – inhibitors of CtBP/E1A interaction | AlphaScreen GST-E1A/His-CtBP binding, 1536-well; hits give low values; control for the full effect not named in the record | activity change, % (test concentration not listed) | actives 0.49% (n = 340,000); in the data active means activity change below about -65%; inconclusive means about -30% to -65%; inactive means above about -30%; also: % is scaled to controls: 0 for no effect and ±100 for the full control effect; compound concentration not given in the record
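In 5 uL wells, 23 nL compound meets equimolar GST-E1A and His-CtBP (5X stock 125 nM each) for 2 h, 37 °C. Beads (5X, 50 ug/mL) then 1 h, 37 °C, dark.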
PINK1 modulator – modulators of PINK1 expression; AID 624263; PINK1 immunofluorescence, high-content cytometry, 24 h; actives 0.2% (n = 410,000); Potency, µM (series often up to 76.6 µM), without a hit: top-dose activation (PINK1 increase), actives largely listed as activators; active = well fitted activation curve with a large enough effect; inconclusive = small, poorly fitted or top-dose-only effect; inactive = flat fitted curve, though single readings scatter; cell line not stated here;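 also: potency is read from the fitted curve at half-maximal effect; % of control where 0% means no effect; nearly all actives have a fitted effect of over 65% in size; a mitochondrial uncoupler was the plate control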
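PINK1 protein, normally rapidly degraded, was detected by immunofluorescence after 24 hour compound treatment of a stable cell line. Titration data (5 concentrations) came from laser-scanning cytometry, with CCCP-treated wells as controls.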
TRPML1 ag – agonists of human TRPML1 channel; AID 624414; TRPML1-expressing cells, Ca2+ dye fluorescence, FDSS; host cell line not named in the record; reference of the full effect not given here; actives 0.12% (n = 410,000); activation, % (concentration not given with the values); in the data active = activation above about 50%; inconclusive = about 30% to 50%; inactive = below about 30%; also: 0% is about no effect; the text of the record puts the active cut at 80%
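Cells: TRPML1-DL, 1X Tet inducer, ~16 h at 37 degrees C/5% CO2. Dye: ABD Ca8 no-wash + quencher, 45-90 min RT. Read: 10 s baseline, compound add, 110 s agonist phase; 54-4 EC80 (4uM final), 110 s antagonist phase.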
D2 PAM – potentiates the human D2 dopamine receptor allosterically; DiscoveRx D2 beta-arrestin cells, luminescence, 90 min; 100% = 57 uM dopamine signal; actives 0.23% (n = 360,000); potentiation, % (test concentration not listed); active = potentiation of 50% or more; inconclusive = 30% to 50%; inactive = 30% or less;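 also: compound concentration not given in the record; tested on top of an EC20 dose of dopamine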
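PathHunter beta-arrestin assay in DiscoveRx D2 cells. Compounds were added with an EC20 of dopamine (50 nM final) for 90 min at 37 deg C. Luminescence was read 1 h after detection reagent, with 57 uM dopamine as the EC100 control.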
The depositor's hits bear a star; ? = inconclusive; nt = not tested or not shown; [ ] = dose if it differs, or a comment. Random draw from the library; overall some 1.3% were active at least once.

SMILES	Six1-Eya2 inh	D2 agonist	CtBP-E1A inh	PINK1 modulator	TRPML1 ag	D2 PAM
CCCc1nc(SCC(=O)NNC(=O)C2CCCCC2)c2ccccc2n1	1	-4.9	10	nt	-0.3	2
CC1(C)Cc2cccc(OCC(=O)NCc3ccccc3)c2O1	2	-4.7	nt	2.4%	0.0	-15
CN1CCN(C(=O)c2ccc3c(c2)N(C)C(=O)/C(=C/c2cccc(Cl)c2)S3)CC1	-2	-2.0	nt	-0.6%	0.2	-16
CC1CCCCC12NC(=O)N(CC(=O)NCc1ccco1)C2=O (stereo not drawn)	0	0.5	nt	0.4%	-0.1	12
CCC(Oc1ccccc1)C(=O)NCCOC (stereo not drawn)	8	-2.0	7	-1.3%	-0.4	-18
O=C(O)c1cccc2c1C(=O)c1ccc(N3CCCCC3)cc1S2(=O)=O	-16	-3.4	-5	-0.8%	4.7	-4
O=C(Nc1ccc(N2CCOCC2)cc1)c1cccc(S(=O)(=O)N2CCOCC2)c1	-9	-1.4	nt	1.0%	-1.0	1
CN(CC(=O)Nc1cccc(F)c1)C(=O)c1cn2ccccc2n1	1	-1.7	-4	-1.0%	-0.3	-2
O=C1Nc2ccc([N+](=O)[O-])cc2OC1CCN1CCN(Cc2ccccc2)CC1 (stereo not drawn)	-9	2.1	2	0.4%	-0.2	-3
O=C1CC(N2CCSCC2)C(=O)N1c1cccc(Br)c1 (stereo not drawn)	6	-2.1	-9	1.4%	0.6	-3
Cc1ccc2oc(C(=O)N(Cc3nccn3C)C(C)C)c(C)c2c1	-2	-3.8	2	0.6%	-0.5	-12
Cc1sc(NC(=O)CSc2nnc(N)s2)c(C#N)c1C	9	7.8	31	-2.0%	1.8	2
COc1ccc(N2CC(C)Cn3c2nc2c3c(=O)n(Cc3ccc(F)cc3)c(=O)n2C)c(OC)c1 (stereo not drawn)	0	-0.3	-2	3.0%	7.0	2
Cc1nn(CCc2nc(-c3ccco3)cs2)c2[nH]c(=O)cc(C(F)(F)F)c12	-29	-2.5	-4	nt	-0.1	-15
COc1c(C)oc2cc(O)ccc2c1=O	14	-2.5	2	1.3%	0.0	6
S=C(NCc1ccncc1)Nc1cc(Cl)cc(Cl)c1	3	-0.9	0	1.2%	8.4	-15
O=C(Cn1cncn1)c1ccc(F)cc1F	0	-2.0	-14	0.8%	-0.9	-10
c1cncc(-c2nc(NCC3CCCO3)c3ccccc3n2)c1 (stereo not drawn)	-28	4.5	-27	4.9%	1.3	-1
CC(NC(=O)CN1C(=O)NC2(CCCCCC2)C1=O)c1ccccc1Cl (stereo not drawn)	4	4.7	1	0.1%	1.2	-4
CC(=O)N(C)c1ccc(C(O)(C(F)(F)F)C(F)(F)F)cc1	1	-3.1	-16	1.1%	1.2	-3
COc1cccc(C#Cc2ccc3c(c2)O[C@H](CN(C)C)[C@@H](C)CN([C@@H](C)CO)S3(=O)=O)c1	-12	-7.6	-4	-0.8%	0.2	3
O=C(COc1cccc(-n2cnnn2)c1)Nc1ccc([N+](=O)[O-])cc1	16	-5.1	-3	0.9%	0.7	-13
CCN=C1S/C(=C\c2cn(C(C)=O)nc2-c2ccccc2)C(=O)N1CC	-7	-0.9	-8	0.8%[38.3 µM]	1.4	-16
CCNC(=O)NC(=O)C(C)OC(=O)c1cc(S(=O)(=O)N2CCCCCC2)ccc1OC (stereo not drawn)	4	5.0	-8	0.3%	-0.2	23
CCc1ccc(C(=O)COC(=O)[C@@H](NC(N)=O)[C@@H](C)CC)cc1	1	-2.8	1	-1.6%	1.8	1
O=C(CN(Cc1ccc(F)cc1)C(=O)CCC(=O)Nc1nccs1)NCc1ccc(F)cc1	-7	-0.4	1	1.0%	0.7	-7
CCCCOc1ccc(S(=O)(=O)N2CCN(c3ccc(N4CCN(CC)CC4)nn3)CC2)cc1	1	-2.0	1	9.7%	0.8	-15
CS(=O)(=O)NCCNc1ccc(C(F)(F)F)cc1[N+](=O)[O-]	-5	-19	11	0.5%	4.3	-10
COc1ccc(CNC(=O)CN2C(=O)NC3(CCCc4sccc43)C2=O)cc1OC (stereo not drawn)	-10	3.5	-10	1.1%	-0.2	-3
COc1cccc(C(O)c2ncc(-c3cccc4ccccc34)[nH]2)c1 (stereo not drawn)	-3	-1.9	-24	2.9%	-0.7	-6

Individual results from the entries so far:
Result of CC(NC(=O)CN1C(=O)NC2(CCCCCC2)C1=O)c1ccccc1Cl (stereo not drawn) under TRPML1 ag: 1.2
Result of O=C(COc1cccc(-n2cnnn2)c1)Nc1ccc([N+](=O)[O-])cc1 under Six1-Eya2 inh: 16

Going on with the list:
SMILES	Six1-Eya2 inh	D2 agonist	CtBP-E1A inh	PINK1 modulator	TRPML1 ag	D2 PAM
Cc1ccc(COC[C@H](CC(C)C)N2CCN(C(=O)c3cccc(C(F)(F)F)c3)CCC2=O)cc1	-3	nt	-4	25%	-0.4	nt
CCOc1ccccc1NC(=O)C(c1ccccc1)N1CCN(C(=O)c2ccco2)CC1 (stereo not drawn)	-12	-2.6	nt	-0.4%	-0.5	-5
CCOC(=O)CNC(=O)N1CCCC(CNS(=O)(=O)Cc2ccccc2)C1 (stereo not drawn)	9	-2.1	nt	0.7%	0.3	-6
Cc1c(-c2ccccn2)c(=O)[nH]n1-c1ccc(F)cc1	?	-4.9	?	-0.6%	0.2	0
Nc1nc(SCC(=O)Nc2cccnc2Cl)n[nH]1	-5	8.8	nt	-1.9%	0.3	-2
Cc1cc(NC(=O)CN2CCC(O)(c3cccc(F)c3)CC2)no1	7	-1.4	7	2.1%	0.6	-26
O=C(O)COc1ccccc1C(Nc1cccnc1)c1cc(Cl)c2cccnc2c1O (stereo not drawn)	-67*	0.0	-91*	4.4%	-0.2	1
COC(=O)Cc1cc(=O)[nH]c(Nc2nc3ccccc3o2)n1	?	-1.5	-17	0.6%	-0.2	1
O=C(CSc1nc2nc(-c3cccs3)cc(C(F)(F)F)c2c(=O)[nH]1)Nc1ccc(F)c(F)c1	-9	5.3	0	?	0.8	-4
COc1ccc(C(=O)N(CN2CCCC2=O)c2nccs2)cc1OC	-1	-0.9	-3	nt	0.0	-17
CC(C)c1nc2ccc(NC(=O)C3CCCCC3)cc2[nH]1	-6	-2.8	5	-1.3%	0.6	-19
Cn1c(SCC(=O)NCc2ccc3c(c2)OCO3)nc2scc(-c3cccs3)c2c1=O	3	1.3	-1	7.6%	3.2	-5
Cc1cccc(N2N=C(C(=O)N3Cc4ccccc4CC3C(N)=O)CCC2=O)c1 (stereo not drawn)	2	5.1	6	0.3%	-0.2	-4
COc1ccc(CCNC(=O)C(=O)NCC2OCCN2S(=O)(=O)c2ccc(Br)cc2)cc1OC (stereo not drawn)	13	3.1	7	-0.5%	-0.1	-11
COc1cccc(N2CC(NC(=O)c3ccc4ccccc4c3)CC2=O)c1 (stereo not drawn)	-13	-0.8	2	2.5%	2.5	-2

2 records drawn at random from those above, as already listed:
SMILES	Six1-Eya2 inh	D2 agonist	CtBP-E1A inh	PINK1 modulator	TRPML1 ag	D2 PAM
CC(NC(=O)CN1C(=O)NC2(CCCCCC2)C1=O)c1ccccc1Cl (stereo not drawn)	4	4.7	1	0.1%	1.2	-4
Cc1ccc2oc(C(=O)N(Cc3nccn3C)C(C)C)c(C)c2c1	-2	-3.8	2	0.6%	-0.5	-12

A different layout for six compounds above.
mol,Six1-Eya2 inh,D2 agonist,CtBP-E1A inh,PINK1 modulator,TRPML1 ag,D2 PAM
c1cncc(-c2nc(NCC3CCCO3)c3ccccc3n2)c1 (stereo not drawn),-28,4.5,-27,4.9%,1.3,-1
CC(NC(=O)CN1C(=O)NC2(CCCCCC2)C1=O)c1ccccc1Cl (stereo not drawn),4,4.7,1,0.1%,1.2,-4
CC(=O)N(C)c1ccc(C(O)(C(F)(F)F)C(F)(F)F)cc1,1,-3.1,-16,1.1%,1.2,-3
COc1cccc(C#Cc2ccc3c(c2)O[C@H](CN(C)C)[C@@H](C)CN([C@@H](C)CO)S3(=O)=O)c1,-12,-7.6,-4,-0.8%,0.2,3
O=C(COc1cccc(-n2cnnn2)c1)Nc1ccc([N+](=O)[O-])cc1,16,-5.1,-3,0.9%,0.7,-13
CCN=C1S/C(=C\c2cn(C(C)=O)nc2-c2ccccc2)C(=O)N1CC,-7,-0.9,-8,0.8%[38.3 µM],1.4,-16

(further entries)
SMILES	Six1-Eya2 inh	D2 agonist	CtBP-E1A inh	PINK1 modulator	TRPML1 ag	D2 PAM
COc1cccc(OC)c1OCCCN1CCOCC1	12	-1.9	-1	0.6%	-0.6	-24
CC(=O)C1=C(C)Nc2ncnn2C1c1ccccc1F (stereo not drawn)	10	-0.6	7	-0.7%	-0.8	-9
CCOc1ccccc1C(=O)NCC(=O)OCc1c(C)noc1C	14	-4.6	0	0.8%	-0.3	1
O=C(CC1COc2ccccc2O1)NC1CCCCC1 (stereo not drawn)	13	-1.6	-1	-1.4%	0.6	-1
CCOC(=O)C1CCN(Cc2cc(=O)n3c(-c4ccccc4)csc3n2)CC1	2	3.8	0	0.9%	-0.4	-28
Cc1cccc(NC(=O)Cn2c(/C=C/c3ccccc3)nc3ccccc32)c1	1	-2.5	2	8.1%	7.9	17
CCOc1ccc(/C=C/C(=O)Oc2ccc(OC)cc2)cc1	-1	-1.8	6	-0.1%	0.2	-11
O=C(NC(=O)c1ccc(Cl)cc1)Nc1cc(N2CCCCC2)ncn1	1	-1.6	0	-0.6%	0.2	1
O=C(Nc1ccc(N2CCCC2)c(Cl)c1)c1ccc([N+](=O)[O-])cc1	-9	-5.4	-18	3.0%	3.8	-4
CC1CC(C)CN(C(=O)Cn2nnc(-c3ccc(Br)cc3)n2)C1 (stereo not drawn)	-1	-1.6	8	9.6%	0.2	2
CCCNC(=O)C1(C)CCCN(C(=O)c2cc(F)ccc2C)C1 (stereo not drawn)	6	-4.9	1	4.5%	0.0	-14
N=C1/C(=C/c2ccc(OC(=O)c3ccco3)cc2)C(=O)N=C2SC=CN12	?	-2.3	-1	0.7%	0.4	-2
O=C(O)c1cc(-c2cccs2)nc2ccc(F)cc12	4	-3.5	1	13%	0.0	-4
N#Cc1ccccc1OCCCNC1CCCC1	2	1.9	5	1.2%	5.4	-22
O=C(CSc1nnc(Cc2cccs2)n1-c1ccccc1)NCc1ccc2c(c1)OCO2	0	-1.4	3	-1.7%	0.5	-10
CC(=O)c1ccc(OCCCC(=O)Nc2ccc(C)c(S(=O)(=O)N(C)C)c2)cc1	-1	-1.9	6	1.3%	2.0	-22
COc1cccc(-c2cc(C(=O)N3CCN(C(=O)c4ccco4)CC3)[nH]n2)c1	0	-2.0	-7	0.1%	-0.5	-8
CCCCn1nnnc1C(c1cc2ccccc2o1)N1CCN(c2ccccc2F)CC1 (stereo not drawn)	4	nt	0	0.3%	0.4	nt
Cc1ccc(-c2nnc(-n3nnc4ccccc43)c3ccccc23)cc1	?	-1.7	-11	11%	-0.1	-10
CCN1C(=O)C(CC(=O)Nc2ccc(OC)cc2)N(Cc2ccc3c(c2)OCO3)C1=S (stereo not drawn)	-1	0.6	4	18%	1.4	8
